Assay outcomes as filed in PubChem BioAssay.
DT40 TDP1 CPT – growth inhibition of DT40 Tdp1-/-;hTDP1 cells with camptothecin (screen for TDP1 inhibitors); chicken DT40 Tdp1-/-;hTDP1 cells + 20 nM CPT, ATP luminescence, 48 h; Potency, µM (series often up to 46.2 µM), without a hit: at the highest dose activity change, negative = growth inhibition, hits mostly inhibitors; 420,000 compounds, 12% hits; AID 686979; also: nearly all actives have a fitted effect of over 55% in size
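Chicken DT40 Tdp1-/- cells stably complemented with human TDP1 were seeded at 400 cells/well in medium containing 20 nM camptothecin, exposed to pin-transferred compounds, and grown at 37 °C for at least 48 hr. Viability was read as ATP luminescence.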
GCN5L2 inh – GCN5L2 (KAT2A) acetyltransferase inhibition; GCN5L2 HAT assay, ThioGlo1 CoA-SH fluorescence; Potency, µM (highest dose often 58.9 µM), for the others: at the top dose activity change, negative = inhibition, most hits filed as inhibitors; 390,000 compounds, 0.21% hits; AID 504327
Target sequence (Q92830 whole entry, looked up): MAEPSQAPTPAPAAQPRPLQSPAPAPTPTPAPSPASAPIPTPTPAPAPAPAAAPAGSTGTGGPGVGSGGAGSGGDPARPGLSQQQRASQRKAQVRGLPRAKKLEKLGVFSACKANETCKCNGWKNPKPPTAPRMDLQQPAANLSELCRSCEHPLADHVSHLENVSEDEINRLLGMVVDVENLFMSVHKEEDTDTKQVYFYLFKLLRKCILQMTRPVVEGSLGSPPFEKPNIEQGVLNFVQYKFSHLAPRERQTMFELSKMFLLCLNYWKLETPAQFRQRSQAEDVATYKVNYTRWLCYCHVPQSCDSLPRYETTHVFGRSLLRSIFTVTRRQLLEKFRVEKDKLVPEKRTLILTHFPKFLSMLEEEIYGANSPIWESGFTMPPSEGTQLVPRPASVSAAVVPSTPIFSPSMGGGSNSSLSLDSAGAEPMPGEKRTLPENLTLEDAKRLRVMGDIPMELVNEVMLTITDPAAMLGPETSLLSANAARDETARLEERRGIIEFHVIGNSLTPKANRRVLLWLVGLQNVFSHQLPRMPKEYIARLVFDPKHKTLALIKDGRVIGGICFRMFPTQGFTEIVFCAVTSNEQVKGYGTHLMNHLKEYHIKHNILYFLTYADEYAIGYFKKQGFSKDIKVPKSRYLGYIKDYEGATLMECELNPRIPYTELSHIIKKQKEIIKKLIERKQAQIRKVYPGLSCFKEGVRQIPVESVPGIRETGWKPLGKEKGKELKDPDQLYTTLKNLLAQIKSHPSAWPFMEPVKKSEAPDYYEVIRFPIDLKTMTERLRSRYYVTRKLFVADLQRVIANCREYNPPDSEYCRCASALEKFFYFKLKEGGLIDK
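ThioGlo1-coupled HAT assay: 20nM GCN5L2, 70uM acetyl-CoA, 75uM H3(1-25) peptide, pH 7.5. Fluorescence read at 340/540nm at start and after 20 min at room temperature.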
* = called active by the depositor; u = inconclusive; x = no result given; ! = not active in a repeat; [ ] = remark or other dose. Calls follow the shape of the dose curve; as a rule, active = well fitted curve in the direction sought with a large enough effect; inconclusive = small, poorly fitted or top-dose-only effect, or another doubt; inactive = no such curve, though single readings can be large; an effect the other way counts as inactive or inconclusive. % is scaled to controls: 0 for no effect and ±100 for the full control effect; potency is read from the fitted curve at half-maximal effect. Not all compounds are listed, and most or all hits are left out here.

1	O=C(O)C(Cc1ccc(Cl)cc1)Sc1nc2ccccc2[nH]1 (stereo unspecified)
2	Cc1cc(C(=O)N2CCN(c3ncccn3)CC2)c2cc(F)ccc2n1
3	Cc1ccccc1N1CCN(C2CCCN(C(=O)CCN3CCCCO3)C2)CC1 (stereo unspecified)
4	COc1cc2nc(C3CCC3)n(NC(=O)C3CCCC(OC)C3)c(=O)c2cc1OC (stereo unspecified)
5	COc1ccc(Cl)cc1NC(=O)CCn1cnc2ccccc2c1=O
6	COc1cc(CCCN2CCNC[C@@H]2C(C)O)cc(OC)c1OC (stereo partly specified)
Screen / compound no.	1	2	3	4	5	6
GCN5L2 inh	5.1%	1.6%	-2.2%	-8.2%	-3.7%	-0.5%
DT40 TDP1 CPT	-3.0%	u	-1.5%	-33.2%	8.3%	1.2%

7	COc1ccccc1N1CCN(C(=O)CN(c2ccc(C)c(C)c2)S(C)(=O)=O)CC1
8	CCCOc1ccc(Nc2cc(C)nc(C)n2)cc1
9	CCOc1ccc(N2CC(C(=O)NCc3ccccc3)CC2=O)cc1 (stereo unspecified)
10	COc1ccc(S(=O)(=O)N2CCOCC2)cc1NC(=O)COC(=O)CC1CC2CCC1C2 (stereo unspecified)
11	O=C(CN1CCN(c2ccc(O)cc2)CC1)Nc1ccc(-c2ccccc2)cc1
12	COCc1nnc(NC(=O)C2CC(=O)N(c3ccc(C)c(Cl)c3)C2)s1 (stereo unspecified)
Screen / compound no.	7	8	9	10	11	12
GCN5L2 inh	2.9%	-11.6%	-4.3%	-8.8%	-4.1%	-2.0%
DT40 TDP1 CPT	-29.8%	23.1µM*	-17.9%	-26.2%	-17.9%	-17.2%

13	ON(Cc1c(F)cccc1Cl)Cc1c(F)cccc1Cl
14	Cc1ccc(C)c(CSCC(=O)NCc2cccs2)c1
15	COCc1c(C#N)c(NCCc2ccccc2)nc(C)c1[N+](=O)[O-]
16	CC1Oc2ccccc2N(CC(=O)NCC2CCCO2)C1=O (stereo unspecified)
17	CCOc1ccc(OCc2ccc(C(=O)NCc3ccncc3)o2)cc1
18	COCC(=O)Nc1cc(OC)ccc1OC
Screen / compound no.	13	14	15	16	17	18
GCN5L2 inh	u	-6.5%	1.7%	-1.0%	-1.3%	2.2%
DT40 TDP1 CPT	3.4%	-18.3%	u	-0.6%	16.4µM*	-6.2%

19	Cc1nc2nc(SCc3ccccc3)nn2c(C)c1C
20	O=C(c1ccccc1)N1CCN(c2ccc([N+](=O)[O-])c(NCc3ccco3)c2)CC1
21	Cc1ccc(CSCCNS(=O)(=O)c2ccc(C)cc2)cc1
22	CC(C)NC(=O)N(C)C[C@H]1Oc2ccc(NC(=O)Nc3ccc(C(F)(F)F)cc3)cc2C(=O)N([C@H](C)CO)C[C@@H]1C
23	COc1ccc(NC(=O)C2CCCN(c3nn4c(=O)cc(C)nc4s3)C2)cc1 (stereo unspecified)
24	CN(CC(=O)Nc1ccc(C(N)=O)cc1)S(=O)(=O)c1ccc2c(c1)OCCO2
Screen / compound no.	19	20	21	22	23	24
GCN5L2 inh	-0.5%	-22.4%	-8.9%	-0.2%	-23.0%	-2.4%
DT40 TDP1 CPT	u	u	-16.7%	-8.2%	-8.6%	-20.2%

25	Cc1ccc(C(=O)CCc2ccc(N)cc2)cc1
26	Cc1ccc(OCC(O)Cn2c(NCCc3ccccc3)nc3c2c(=O)[nH]c(=O)n3C)cc1 (stereo unspecified)
27	O=C(Nc1ccon1)c1ccc(Br)s1
28	O=S(=O)(c1ccc(Oc2ccc(Cl)cc2)nc1)N1CCOCC1
29	Nc1nc2c(s1)CCCCCCCCCC2
30	Cc1c(Nc2ncccc2C(=O)O)cccc1C(F)(F)F
Screen / compound no.	25	26	27	28	29	30
GCN5L2 inh	0.0%	u	-6.1%	-11.3%	-5.0%	-0.1%
DT40 TDP1 CPT	-6.3%	-26.7%	-6.3%	0.9%	-18.5%	u

31	CC[C@H]1C(c2ccc(F)cc2)=NN(c2ccccc2)[C@@H]1CO
32	COc1ccc(OC)c(CCNC(=O)CCn2c(=O)c3cccn3c3cccnc32)c1
33	CSc1nc(-c2ccccc2Cl)nc2c1Cc1c(CO)cnc(C)c1O2
34	Cc1cccc(NC(=O)CSCC(=O)N(C)CC(=O)Nc2cccc(F)c2)c1
35	CCOC(=O)c1ccc(NC(=O)C(=O)NCc2ccccn2)cc1
36	CC(C)c1ccc2oc(=O)cc(CN3CCN(c4ccccc4)CC3)c2c1
Screen / compound no.	31	32	33	34	35	36
GCN5L2 inh	39.8µM*!	0.2%	-3.0%	1.0%	-0.2%	-5.7%
DT40 TDP1 CPT	-9.7%	u	14.6µM*	3.6%	23.0%	u

Looked up by structure from the list above:
35	CCOC(=O)c1ccc(NC(=O)C(=O)NCc2ccccn2)cc1
32	COc1ccc(OC)c(CCNC(=O)CCn2c(=O)c3cccn3c3cccnc32)c1
31	CC[C@H]1C(c2ccc(F)cc2)=NN(c2ccccc2)[C@@H]1CO
33	CSc1nc(-c2ccccc2Cl)nc2c1Cc1c(CO)cnc(C)c1O2
36	CC(C)c1ccc2oc(=O)cc(CN3CCN(c4ccccc4)CC3)c2c1
34	Cc1cccc(NC(=O)CSCC(=O)N(C)CC(=O)Nc2cccc(F)c2)c1
Screen / compound no.	35	32	31	33	36	34
GCN5L2 inh	-0.2%	0.2%	39.8µM*!	-3.0%	-5.7%	1.0%
DT40 TDP1 CPT	23.0%	u	-9.7%	14.6µM*	u	3.6%

(cont.)
37	C/C(=N/NC(=O)c1ccco1)c1ccc(NC(=O)c2ccc(Br)o2)cc1
38	O=C(Cn1c(CN2CCCCC2)nc2ccccc2c1=O)NC1CCCCC1
39	O=C(CNC(=O)C12CC3CC(CC(C3)C1)C2)NC1=NCCS1
40	O=C(COC(=O)c1ccc(Cl)nc1)Nc1c(Cl)cccc1C(F)(F)F
41	C=CCN(CC=C)C(=O)CN1C(=O)NC(C)(c2ccc3cc(OC)ccc3c2)C1=O (stereo unspecified)
42	CC(=O)Nc1ccc2ccccc2c1
Screen / compound no.	37	38	39	40	41	42
GCN5L2 inh	-10.1%	-1.1%	-0.2%	1.1%	12.8%	-7.6%
DT40 TDP1 CPT	u	-2.3%	u	5.2%	-5.7%	2.1%

43	COc1ccc(CC(=O)NCc2ccc3c(c2)CCN3C(C)=O)cc1
44	COc1ccc(N2CC(C(=O)N3CCN(c4ccccc4F)CC3)CC2=O)cc1 (stereo unspecified)
45	O=C(CCC(=O)N1CCN(S(=O)(=O)c2ccc(Cl)cc2)CC1)NCc1ccccc1
46	CCOC(=O)/C(=N\Nc1cc(C(F)(F)F)ccc1Cl)N(CC)CC
47	O=C(NCc1ccccc1)c1ccc(S(=O)(=O)C(F)F)cc1
48	O=C(Cn1cnc2ccccc21)c1ccc(Cl)cc1
Screen / compound no.	43	44	45	46	47	48
GCN5L2 inh	-4.0%	-0.8%	-1.3%	0.9%	1.5%	6.6%
DT40 TDP1 CPT	-22.7%	1.4%	2.9%	-0.1%	-13.2%	4.3%

49	S=c1[nH]nc(-c2cc(-c3ccco3)[nH]n2)n1-c1ccccc1
50	Cc1cc(C)nc(SCc2ccccc2C#N)n1
51	O=C(OCC(=O)c1cccs1)c1cccc(C(=O)OCC(=O)c2cccs2)n1
52	CC[C@@H](C)[C@H](CN[C@H](CNC)[C@@H](C)O)NCCc1ccc(OC)cc1
53	O=C(Nc1ccc([N+](=O)[O-])cc1Br)c1cc2ccccc2nc1Cl
54	COc1ccc(C2=NN(C(C#N)c3ccc(OC)cc3)C(c3ccccc3)C2)cc1 (stereo unspecified)
Screen / compound no.	49	50	51	52	53	54
GCN5L2 inh	-8.5%	-0.8%	-3.3%	-11.9%	-15.6%	-1.6%
DT40 TDP1 CPT	-22.3%	-2.3%	0.4%	-53.6%	-21.1%	u

55	OCC1(CCc2ccccc2)CCCN(C/C=C/c2ccccc2)C1 (stereo unspecified)
56	COc1cc(NC(=O)Cn2c([N+](=O)[O-])cnc2C)c(OC)cc1Cl
57	O=C1COc2ccc(C(=O)COC(=O)c3ccc(Cl)cc3[N+](=O)[O-])cc2N1
58	CC(=O)N1CCCc2cc(S(=O)(=O)N3CCC(C(=O)NCc4ccc(F)cc4)CC3)ccc21
59	COc1ccc2c(c1)-c1nc(NC(=O)c3cccc(Br)c3)sc1CC2
60	O=C(NCCCN1CCOCC1)c1cccc(S(=O)(=O)N2CCN(c3ccccc3)CC2)c1
Screen / compound no.	55	56	57	58	59	60
GCN5L2 inh	-14.7%	-12.9%	-1.4%	-14.5%	-15.6%	1.6%
DT40 TDP1 CPT	6.5%	18.3%	4.5%	u	u	-7.2%

61	O=C(N/N=C/C=C/c1ccccc1)c1cnccn1
62	CCC(Oc1ccccc1)C(=O)Nc1ccccc1N1CCCCC1 (stereo unspecified)
63	COC(=O)c1ccsc1NC(=O)CCc1ccccc1
64	CSc1nc2ncnc(N)c2[nH]1
65	O=C(NCCN1CCN(C(=O)c2ccc([N+](=O)[O-])cc2)CC1)C(=O)NCc1ccccc1
66	CC(C)c1ccc(C(=O)Nc2nnc(S(=O)(=O)N3CCOCC3)s2)cc1
Screen / compound no.	61	62	63	64	65	66
GCN5L2 inh	-4.7%[0.501 µM]	u	-3.7%	-3.8%	-15.4%	-23.7%
DT40 TDP1 CPT	-9.4%	u	6.5%	4.7%	-13.2%	u

67	COc1ccc(OCCNc2cc(N3CCCCC3)ccc2[N+](=O)[O-])cc1
68	Nc1c2c(nc3cccc(Cl)c13)N(c1ccccc1)CC2
69	Oc1ccc2ccccc2c1CN1CCN(C/C=C/c2ccccc2)CC1
70	Cc1cc(S(=O)(=O)NCCN2CCOCC2)ccc1Cl
71	Cc1occc1C(=O)NC(C)CCc1ccccc1 (stereo unspecified)
72	COc1nn(CC(=O)N2N=C(C(F)F)CC2(O)C(F)F)cc1[N+](=O)[O-] (stereo unspecified)
Screen / compound no.	67	68	69	70	71	72
GCN5L2 inh	-8.5%	2.3%	-0.4%	-3.0%	-3.6%	-10.8%
DT40 TDP1 CPT	18.4µM*	17.3%	-33.4%	11.6%	-2.0%	0.9%

73	CN1CCN(C(=O)C23CC4CC(C2)CC(c2ccccc2)(C4)C3)CC1
74	COc1ccc(NC(=O)/C=C/c2c(Cl)nc3ccccn23)cc1
75	O=C(COC(=O)COc1ccccc1[N+](=O)[O-])Nc1ccc2c(c1)OCO2
76	CCC1(C)CC(=O)c2c(ccc3oc(C(=O)NCc4ccccc4)c(C)c23)O1 (stereo unspecified)
77	Cc1nc(C)n(CC(O)COc2ccc3c(c2)CCC3)n1 (stereo unspecified)
78	O=c1c2ccccc2c(/C=N/c2ncn[nH]2)c(O)n1Cc1ccccc1
Screen / compound no.	73	74	75	76	77	78
GCN5L2 inh	-2.9%	-12.5%	-4.2%	-10.3%	-12.3%	-10.0%
DT40 TDP1 CPT	u	-9.6%	-9.8%	29.1µM*	-3.9%	u

79	O=C(C[n+]1cccc(/C=N/O)c1)N(Cc1ccccc1)Cc1ccccc1
80	C=CCOC(=O)C1=C(C)Nc2nnnn2C1c1cc(OC)ccc1OC (stereo unspecified)
81	Cc1ccc(C(=O)Oc2ccc3ccc(=O)oc3c2)cc1
82	O=c1[nH]nc(CSCc2ccccc2Cl)[nH]1
83	CCOc1ccc(CNc2nnnn2C)cc1OC
84	COc1cccc(NC(=O)CN(C)C(=O)CCNS(=O)(=O)c2ccc(C)cc2)c1
Screen / compound no.	79	80	81	82	83	84
GCN5L2 inh	-1.3%	-4.9%	-2.0%	x	1.8%	-0.7%
DT40 TDP1 CPT	-21.5%	-25.4%	2.9%	0.2%	-8.8%	4.8%

85	CCN(CC(=O)Nc1ccc(OC)cc1)C(=O)CSCC(=O)Nc1cc(C)on1
86	COCCNc1nnc(Cc2ccc(OC)c(OC)c2)c(=O)[nH]1
87	COc1ccc(OC)c(-c2nc(C)sc2CC(=O)O)c1
88	CC(C)n1c(SCC(=O)Nc2ccccc2)nc2c1c(=O)n(C)c(=O)n2C
89	COCCn1c(SCc2nnc(-c3ccccc3)o2)nc2sc3c(c2c1=O)CCC3
90	Cc1ccc(C(=O)NC(C)c2ccc(-n3ccnc3)cc2)o1 (stereo unspecified)
91	CCOC(=O)Cn1c(S(=O)(=O)Cc2ccccc2)nc2ccccc21
92	COc1cc(OC)c(OC)cc1/C=N/Nc1ncnc2c1[nH]c1ccc(C)cc12
93	COc1cccc(NC(=O)Cn2cnc3c(oc4nc5c(cc43)CCCC5)c2=O)c1
Screen / compound no.	85	86	87	88	89	90	91	92	93
GCN5L2 inh	-5.9%	1.2%	-3.1%	-4.9%	1.6%	-2.6%	1.9%	-3.3%	-2.3%
DT40 TDP1 CPT	-3.3%	-0.2%	-4.1%	u	u	16.6%	-2.4%	-13.9%	-9.9%
